A1 inh = inhibitors of the anti-apoptotic protein A1, read as caspase activation | MEF A1-2A-BIM cells, Caspase-Glo 3/7 luminescence, 3 h; percent of clofoctol response, vehicle zero | caspase activation, % (concentration not given with the values) | 330,000 compounds, 0.066% hits | AID 2462;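 active means over half of replicate activation scores above 10%, or exactly half above 10 with the replicate mean above 10; inconclusive means replicate mean below 10 yet half the replicates above 10; inactive means over half of replicates below 10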;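 further: wells of about 30 µL received 50 nL stock; many hits fall short of the cut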
B2AR ag = human beta-2 adrenergic receptor agonism by FAP | P07550 | Am2.2-beta2AR cells, FAP receptor internalization, flow cytometry; reference of the scale not given here | AID 504454 | response, % (concentration not given with the values) | 340,000 compounds, 0.43% hits;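 active means response above a set limit, near 3 SD of response in nonfluorescent compounds, cut at about 42% in these data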;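 further: stock transfer was 100 nL into about 11 µL; a reference agonist was the positive control; negative values mostly stem from fluorescent compounds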
Target sequence (P07550 whole entry, looked up): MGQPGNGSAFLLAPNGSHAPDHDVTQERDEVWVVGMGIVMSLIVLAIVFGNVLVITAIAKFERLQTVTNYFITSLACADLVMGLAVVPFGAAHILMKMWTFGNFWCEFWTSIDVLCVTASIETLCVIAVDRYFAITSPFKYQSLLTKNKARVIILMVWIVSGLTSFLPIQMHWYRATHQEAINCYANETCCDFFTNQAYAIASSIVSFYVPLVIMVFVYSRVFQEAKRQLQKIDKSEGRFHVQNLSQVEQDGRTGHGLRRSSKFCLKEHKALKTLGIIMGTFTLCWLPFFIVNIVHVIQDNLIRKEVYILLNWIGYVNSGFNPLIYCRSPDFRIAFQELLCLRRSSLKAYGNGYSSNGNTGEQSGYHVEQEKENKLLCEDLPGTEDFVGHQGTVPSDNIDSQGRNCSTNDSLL
Beta cell apopt = blocks beta cell apoptosis; protection from apoptosis, % (test concentration not listed); AID 435005; 300,000 compounds, 0.8% hits; INS-1E cytokine-induced death, ATP luminescence, 48 h; percent of positive-control rescue, neutral wells zero;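 active means all replicates at 75% or more, or half of them and the mean; inconclusive means half reach 75% but not the mean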;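 further: 0% = cytokine-treated negative control wells and 100% = positive control rescue; higher means more ATP so stronger rescue from cytokine killing; wells of about 40 µL received 100 nL stock; the first replicate is given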
T cruzi repl = blocks replication of Trypanosoma cruzi. AID 1885. 300,000 compounds, 1.4% hits. T. cruzi beta-gal in NIH3T3, luminescence, 90 h. inhibition, % (test concentration not listed);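 active means mean inhibition across valid replicates above about 55%, limit read from the data; inconclusive means mean below that limit but half or more replicates reach it; inactive means mean below it, under half of replicates reach it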;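 further: signal also drops with host cell toxicity which is not excluded here; 0% = plate median of DMSO wells and 100% = zero luminescence signal; higher percent means less beta-gal luminescence so fewer parasites; stock transfer was 50 nL into about 50 µL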
LANA-H2A inh = blocks KSHV LANA binding to histone H2A/H2B; Q9QR71; cell-free LANA-H2A/H2B peptide, fluorescence polarization; inhibition, % (concentration not given with the values); 320,000 compounds, 0.6% hits; AID 2629; in the data active means inhibition mostly above about 10%, no sharp cut-off; inactive means mostly below about 6.7%;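 further: stock transfer was 7.5 nL into about 10 µL; 0% = median of vehicle wells and 100% = median of positive control wells; one replicate is shown; the record names a cut of 25% in any replicate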
Ecoli rRNA inh = inhibits bacterial ribosomal RNA function over humanized ribosomes; E. coli WT GFP vs humanized-ribosome RFP mutants, fluorescence, 24 h; hits give low values; DMSO median 0, no signal -100; GFP signal change (wild-type ribosome), % (test concentration not listed); 350,000 compounds, 1.6% hits;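 active means significant combined selectivity score with lowered wild-type GFP, culture density cut under 30%, mutant RFP and density less affected; inactive means any of these conditions unmet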; further: one replicate is shown; some compounds called inactive have numbers as strong as hits
Calb FLC = C. albicans growth modulation with fluconazole; C. albicans CaCi-2 (fluconazole-resistant clinical isolate) + fluconazole, Alamar Blue growth, 48 h; growth inhibition, % (concentration not given with the values); 300,000 compounds, 0.57% hits;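 active means most replicates above 75%; inconclusive means exactly half above 75%; inactive means most below 75%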;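 further: all wells also contain fluconazole at 8 µg/ml as a sub-toxic cotreatment; 0% = median of DMSO wells and 100% = median of geldanamycin control wells; wells of about 8 µL received 7.5 nL stock; the first replicate is given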
ALR inh = inhibitors of human sulfhydryl oxidase ALR; 290,000 compounds, 3.8% hits; inhibition, % (concentration not given with the values); purified ALR, DTT oxidation, H2O2 HRP-luminol luminescence; AID 485317; P55789;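 active means mean and each replicate at 75% or more; inconclusive means only one of the two met; inactive means neither met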;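 further: stock transfer was 7.5 nL into about 7.5 µL; 0% = neutral wells and 100% = wells with inactivated enzyme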
Target sequence (P55789 whole entry, looked up): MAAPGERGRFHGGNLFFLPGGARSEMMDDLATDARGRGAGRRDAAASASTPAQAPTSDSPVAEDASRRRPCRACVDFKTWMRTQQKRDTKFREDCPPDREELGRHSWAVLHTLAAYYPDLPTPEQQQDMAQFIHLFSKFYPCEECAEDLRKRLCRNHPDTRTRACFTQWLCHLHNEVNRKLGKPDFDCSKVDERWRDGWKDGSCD
Ecoli rRNA inh OD600 = further read-out of Ecoli rRNA inh, marked with its call; OD600 change, %; measured here: OD600 growth;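 optical density of the mix in the first replicate; 0 = DMSO median and -100 = no signal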
Ecoli rRNA inh RFP = also measured in Ecoli rRNA inh; calls as there; RFP signal change, %; measured here: RFP humanized mutant strains;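 first replicate; 0 = DMSO median and -100 = no signal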
Starred values were filed as active, the others as inactive; i = inactive; ? = inconclusive; nt = no result given. An excerpt; rates above refer to the full screens.

(1) Cc1nnc(NC2CCCCC2)[nH]c1=O
(2) CCOC(=O)N1CCN(S(=O)(=O)N2CCCC(C(=O)NCCCN3CCCCC3CC)C2)CC1 (stereo not drawn)
(3) O=C(Cn1c(C(=O)N2CCc3ccccc3C2)cc2sccc21)c1ccccc1
(4) COc1ccc2c(CC(=O)Nc3ccccc3N3CCOCC3)coc2c1
(5) Cc1cc(CNC(=O)c2cc(Br)ccc2Cl)nn1C
(6) Cc1onc(-c2ccccc2)c1-c1n[nH]c(=S)n1-c1ccccc1
(7) CN(C)c1ccc(C(=O)NCC(c2cccs2)N2CCOCC2)cc1 (stereo not drawn)
(8) Cc1cc(C)c(Nc2cc(S(=O)(=O)O)c(N)c3c2C(=O)c2ccccc2C3=O)c(C)c1
screen / no.	1	2	3	4	5	6	7	8
A1 inh	-0.6	-0.7	0.6	0.0	0.5	nt	-1.7	-0.7
B2AR ag	4	1	-1	-11	-6	-6	-6	2
Beta cell apopt	-2	-2	11	-6	1	1	-3	16
T cruzi repl	-13	1	37	11	-11	-11	nt	nt
LANA-H2A inh	-3.0	-0.7	-3.1	1.3	11	1.6	-2.8	1.2
Ecoli rRNA inh	nt	17	-4	-27*	nt	nt	11	nt
Ecoli rRNA inh OD600	nt	13	-2	-19*	nt	nt	9	nt
Ecoli rRNA inh RFP	nt	1.5	8.6	-1.5*	nt	nt	-0.1	nt
Calb FLC	-10	1	6	-2	-8	33	nt	nt
ALR inh	nt	-7	8	nt	-1	72	nt	nt

(9) O=C1Cc2cc(S(=O)(=O)Nc3ccccc3Cl)cc3c2N1CCC3
(10) COc1ccc(-n2nc(C(=O)NCC(=O)N3CC(C)CC(C)C3)c3ccccc3c2=O)c(OC)c1 (stereo not drawn)
(11) COc1cc(-c2nc(C(F)(F)F)c(OC)o2)cc(OC)c1OC
(12) Cn1c(C(=O)N2CCCC(C(=O)NCCN3CCOCC3)C2)cc2sccc21 (stereo not drawn)
(13) O=C(O)c1ccc(CS(=O)(=O)c2ccc(Br)cc2)cc1
(14) CC(Sc1nnc2c(n1)C1(C)CCC2C1(C)C)C(=O)Nc1ccccc1 (stereo not drawn)
(15) C/C(=N\OCc1ccc(C#N)cc1)c1ccccc1
(16) Cc1ccc(-c2cc(C(=O)N/N=C/c3ccco3)[nH]n2)cc1
screen / no.	9	10	11	12	13	14	15	16
A1 inh	-0.9	-0.4	2.2	0.2	-1.4	1.2	-7.2	0.2
B2AR ag	2	0	0	1	1	-5	0	-3
Beta cell apopt	-3	6	8	-2	-6	0	nt	4
T cruzi repl	12	-1	-7	-12	9	4	18	0
LANA-H2A inh	3.9	-1.1	5.6	6.2	4.7	6.3	-1.1	-6.3
Ecoli rRNA inh	0	2	34	9	3	nt	-8	nt
Ecoli rRNA inh OD600	3	-12	17	4	3	nt	-15	nt
Ecoli rRNA inh RFP	3.0	4.7	-8.2	1.2	0.4	nt	-3.6	nt
Calb FLC	-24	55	-6	-11	11	47	?	-5
ALR inh	-2	nt	10	-2	5	-2	-4	nt

Results in Beta cell apopt, ALR inh and Ecoli rRNA inh, for some of the entries so far:
| # | structure | Beta cell apopt | ALR inh | Ecoli rRNA inh |
| --- | --- | --- | --- | --- |
| 12 | Cn1c(C(=O)N2CCCC(C(=O)NCCN3CCOCC3)C2)cc2sccc21 (stereo not drawn) | -2 | -2 | 9 |
| 9 | O=C1Cc2cc(S(=O)(=O)Nc3ccccc3Cl)cc3c2N1CCC3 | -3 | -2 | 0 |
| 15 | C/C(=N\OCc1ccc(C#N)cc1)c1ccccc1 | nt | -4 | -8 |
| 13 | O=C(O)c1ccc(CS(=O)(=O)c2ccc(Br)cc2)cc1 | -6 | 5 | 3 |
| 10 | COc1ccc(-n2nc(C(=O)NCC(=O)N3CC(C)CC(C)C3)c3ccccc3c2=O)c(OC)c1 (stereo not drawn) | 6 | nt | 2 |
| 14 | CC(Sc1nnc2c(n1)C1(C)CCC2C1(C)C)C(=O)Nc1ccccc1 (stereo not drawn) | 0 | -2 | nt |

More entries:
(17) Cc1ccc(NS(=O)(=O)c2cc3[nH]c(=O)c(=O)[nH]c3cc2C)c(C)c1
(18) CCOC(=O)C(Cc1ccccc1)NC(=O)CNC(=O)CNC(=O)OCc1ccccc1 (stereo not drawn)
(19) CCN(CC(=O)NCc1cccs1)C(=O)CCCOc1ccc(C(C)(C)C)cc1
(20) O=C(CCCOc1ccccc1)NNC(=O)c1ccc(Cl)cc1
(21) Cc1cc([N+](=O)[O-])nn1CCCC(=O)Nc1sc2c(c1C(N)=O)CCC(C)C2 (stereo not drawn)
(22) Cn1c(=O)c(=O)n(C)c2cc(S(=O)(=O)N3CCCC3C(=O)NCc3ccco3)ccc21 (stereo not drawn)
(23) C=C(C)c1cccc(C(C)(C)NC(=O)N2CCN(c3ncccn3)CC2)c1
(24) O=C1C2C(c3ccccc3)C=CC(c3ccccc3)C2C(=O)N1CCCO (stereo not drawn)
screen / no.	17	18	19	20	21	22	23	24
A1 inh	-0.3	0.2	-0.7	?	-1.2	0.2	1.7	0.6
B2AR ag	-1	8	1	-10	-5	-6	0	-2
Beta cell apopt	-13	-3	0	-1	-1	-4	2	2
T cruzi repl	1	-42	nt	nt	1	-11	6	12
LANA-H2A inh	-0.9	5.9	-6.5	3.1	-3.1	1.4	2.5	-3.3
Ecoli rRNA inh	9	nt	-23	nt	4	11	nt	nt
Ecoli rRNA inh OD600	3	nt	-60	nt	9	4	nt	nt
Ecoli rRNA inh RFP	-1.6	nt	16	nt	-5.8	1.3	nt	nt
Calb FLC	-1	4	nt	nt	14	-3	0	-3
ALR inh	-4	-1	-11	3	18	-3	-2	-6

Retrieved by compound from above, five records:
(21) Cc1cc([N+](=O)[O-])nn1CCCC(=O)Nc1sc2c(c1C(N)=O)CCC(C)C2 (stereo not drawn)
(23) C=C(C)c1cccc(C(C)(C)NC(=O)N2CCN(c3ncccn3)CC2)c1
(17) Cc1ccc(NS(=O)(=O)c2cc3[nH]c(=O)c(=O)[nH]c3cc2C)c(C)c1
(22) Cn1c(=O)c(=O)n(C)c2cc(S(=O)(=O)N3CCCC3C(=O)NCc3ccco3)ccc21 (stereo not drawn)
(18) CCOC(=O)C(Cc1ccccc1)NC(=O)CNC(=O)CNC(=O)OCc1ccccc1 (stereo not drawn)
screen / no.	21	23	17	22	18
A1 inh	-1.2	1.7	-0.3	0.2	0.2
B2AR ag	-5	0	-1	-6	8
Beta cell apopt	-1	2	-13	-4	-3
T cruzi repl	1	6	1	-11	-42
LANA-H2A inh	-3.1	2.5	-0.9	1.4	5.9
Ecoli rRNA inh	4	nt	9	11	nt
Ecoli rRNA inh OD600	9	nt	3	4	nt
Ecoli rRNA inh RFP	-5.8	nt	-1.6	1.3	nt
Calb FLC	14	0	-1	-3	4
ALR inh	18	-2	-4	-3	-1

Going on with the list:
(25) Cc1csc(Nc2cccc3ccccc23)n1
(26) Cc1cc(C(C)(C)C)oc1C(=O)NCCCNC(=O)c1oc(C(C)(C)C)cc1C
(27) CCC1(C)Cc2c(C#N)c(SC)nc(N3CCOCC3)c2CO1 (stereo not drawn)
(28) Cc1cc(C)n2nc(SCC(=O)N(CCC#N)c3ccccc3F)nc2n1
(29) CCN1C(=O)C(=O)N(Cc2ccc(OC)c(F)c2)C1=O
(30) CCN1CCN(C(=O)Cn2ncc3c2-c2ccccc2OC3)CC1
(31) O=C(O)Cc1ccc(NC(=O)COc2ccc3ccccc3c2)cc1
(32) Cc1ccc(-c2nc3cccnc3s2)cc1NS(=O)(=O)c1ccc2c(c1)CCCC2
screen / no.	25	26	27	28	29	30	31	32
A1 inh	-0.8	-0.9	-1.1	-0.3	1.9	0.4	-0.8	0.1
B2AR ag	-9	-1	7	-10	0	-1	-5	4
Beta cell apopt	0	-1	6	-6	-2	-4	nt	4
T cruzi repl	-5	27	7	nt	-11	-8	-10	21
LANA-H2A inh	2.7	3.0	3.7	-312	3.2	-5.2	-0.2	-0.7
Ecoli rRNA inh	5	nt	-40*	3	5	6	-1	-7
Ecoli rRNA inh OD600	2	nt	-24*	5	10	13	5	-5
Ecoli rRNA inh RFP	-2.8	nt	-6.9*	0.2	-1.5	-0.8	-0.8	1.6
Calb FLC	0	-8	0	nt	-17	0	-4	2
ALR inh	2	-14	-11	-1	-1	-13	-52	0

(33) CCOC(=O)c1c(CC(C)C)csc1/N=C/C1C(=O)CCCC1=O
(34) Cc1ccc2c(c1)/C(=N/N1C(=O)c3ccccc3C1=O)C(=O)N2
(35) Cc1ccccc1-c1nnc(SCC(=O)N2CCCC2)o1
(36) Cc1nn(CC(=O)Nc2ccc3c(c2)OCCO3)c(C)c1[N+](=O)[O-]
(37) CC(C)N(CCn1c(=S)[nH]c2ccccc2c1=O)C(C)C
(38) CSc1nc(N2CCOCC2)c2sccc2n1
(39) O=C(COC(=O)c1ccc(S(=O)(=O)N2CCCCC2)cc1)NCc1ccco1
(40) CN(C)CCC(=O)c1ccc(Cl)cc1
screen / no.	33	34	35	36	37	38	39	40
A1 inh	0.3	0.3	-0.3	0.9	-0.5	0.0	0.3	0.4
B2AR ag	0	-5	-3	4	-11	-6	2	14
Beta cell apopt	6	-2	-8	12	-1	-18	-4	-4
T cruzi repl	5	-8	nt	nt	25	3	-5	-9
LANA-H2A inh	-2.7	-0.6	-5.0	6.6	-5.5	0.8	-1.5	3.8
Ecoli rRNA inh	-14	nt	-1	5	nt	1	15	nt
Ecoli rRNA inh OD600	-11	nt	-11	7	nt	14	8	nt
Ecoli rRNA inh RFP	50	nt	-2.4	0.2	nt	2.7	1.7	nt
Calb FLC	4	-1	0	nt	-8	?	11	23
ALR inh	15	?	nt	23	3	-10	-2	?

(41) CC(=O)N1CCN(C(=O)CCCNC(=O)c2ccc(Cl)cc2)CC1
(42) COc1ccccc1CCNC(=O)c1cc(-c2ccncc2)nc2ccc(Br)cc12
(43) N#Cc1nc(-c2ccco2)oc1N1CCCC1
(44) Cc1ccc(SCC(=O)OC(C)C(=O)NC2CCCCC2C)c(C)c1 (stereo not drawn)
(45) CCOc1ccc(NC(=O)C(C)NS(=O)(=O)c2ccc(NC(C)=O)cc2)cc1 (stereo not drawn)
(46) O=C(NC1CCSc2ccccc21)c1c(F)cccc1Cl (stereo not drawn)
screen / no.	41	42	43	44	45	46
A1 inh	0.4	nt	-0.6	-3.5	0.2	-0.6
B2AR ag	-4	6	-15	-3	0	-1
Beta cell apopt	0	nt	-2	-5	-1	nt
T cruzi repl	-3	89*	1	nt	-10	1
LANA-H2A inh	-2.2	nt	0.2	-4.9	3.7	1.3
Ecoli rRNA inh	23	11	nt	0	10	6
Ecoli rRNA inh OD600	17	7	nt	5	7	16
Ecoli rRNA inh RFP	5.3	-2.4	nt	0.8	-2.1	0.9
Calb FLC	2	-5	3	nt	-20	-15
ALR inh	4	nt	-18	nt	i	8
